VDR inh: inhibitors of human vitamin D receptor. AID 504847. VDR-SRC2-3 peptide fluorescence polarization, 2 h. actives 0.93% (n = 400,000). P11473. Potency, µM, inactives show max response, negative = inhibition, usual class: inhibitors; active = well fitted inhibition curve with a large enough effect; inconclusive = small, poorly fitted or top-dose-only effect, or another doubt; inactive = no such curve, though single readings can be large or run the other way; also: series mostly up to about 120 µM
Target sequence (P11473 whole entry, looked up): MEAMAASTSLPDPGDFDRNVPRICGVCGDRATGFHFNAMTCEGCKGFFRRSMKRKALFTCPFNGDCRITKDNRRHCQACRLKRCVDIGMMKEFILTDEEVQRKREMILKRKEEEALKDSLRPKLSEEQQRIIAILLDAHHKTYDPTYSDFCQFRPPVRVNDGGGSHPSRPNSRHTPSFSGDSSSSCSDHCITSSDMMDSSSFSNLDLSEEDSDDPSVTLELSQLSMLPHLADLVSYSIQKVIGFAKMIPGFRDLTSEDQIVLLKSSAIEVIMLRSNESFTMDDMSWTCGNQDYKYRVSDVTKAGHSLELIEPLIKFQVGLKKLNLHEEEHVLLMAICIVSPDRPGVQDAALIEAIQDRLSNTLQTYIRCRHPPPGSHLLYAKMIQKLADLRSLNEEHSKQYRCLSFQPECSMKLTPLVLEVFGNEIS
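FP read-out; VDR + SRC2-3 coactivator peptide; 23 nl compound by pintool; 2 h RT incubation; reagents held at 4 deg C, protected from light.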
* = called active by the depositor; ? = inconclusive; & = joins results of further samples. % is scaled to controls: 0 for no effect and ±100 for the full control effect; potency is read from the fitted curve at half-maximal effect.

> CCOc1ccc(C(=O)OCC(=O)Nc2cccc(S(=O)(=O)N3CCCC3)c2)cc1
  VDR inh: -0.4%
> Fc1ccc(C2=CC(c3ccco3)n3ncnc3N2)cc1 (stereo unspecified)
  VDR inh: -21.4%
> CC(=O)Nc1ccc2c(c1)CCCC2
  VDR inh: -1.0%
> CC(C)c1ccc2oc(-c3ccc(Cl)c(NC(=O)Cc4ccccc4)c3)nc2c1
  VDR inh: -20.1%
> CCc1ccc2oc(C(=O)Nc3cccc(Cl)c3C)cc(=O)c2c1
  VDR inh: 16.0%
> O=C(COC(=O)[C@@H]1CCCN1S(=O)(=O)c1ccccc1F)Nc1ccc(OC(F)F)cc1
  VDR inh: -14.5%
> C[C@@H]1CN([C@H](C)CO)C(=O)c2cc(NC(=O)NC3CCCCC3)ccc2O[C@H]1CN(C)S(C)(=O)=O
  VDR inh: -1.1%
> COc1ccc(C(CC(=O)c2ccc(C)cc2)C(C#N)C#N)cc1OC (stereo unspecified)
  VDR inh: ?
> COC(=O)c1c(C)nn(-c2ccccc2)c1-n1cccc1
  VDR inh: -8.1%
> CCOC(=O)c1cc(-c2ccccc2)sc1NC(=O)COC
  VDR inh: -15.7%

> O=C(C1CCCN(S(=O)(=O)c2cccc3nsnc23)C1)N1CC=C(c2ccccc2)CC1 (stereo unspecified)
  VDR inh: -9.6%
> O=c1c2ccccc2nc(/C=C/c2c[nH]c3ccccc23)n1-c1ccc([N+](=O)[O-])cc1
  VDR inh: 3.0%
> COc1ccc(C)cc1NC(=O)CC(NC(C)=O)c1ccccc1 (stereo unspecified)
  VDR inh: -1.7%
> COc1ccc(Br)cc1/C=N/NC(=O)c1ccco1
  VDR inh: 5.7%
> O=[N+]([O-])c1ccc(SCCc2ccncc2)cc1
  VDR inh: ?
> O=[N+]([O-])c1ccc(/C=N/Nc2nc(N3CCCCC3)nc(N3CCCCC3)n2)o1
  VDR inh: 6.4%
> COc1ccc(N2CCN(C(=O)c3cc(S(=O)(=O)N4CCCCCC4)cn3C)CC2)cc1
  VDR inh: 7.2%
> CC(=O)Nc1ccc(OC(=O)Cc2ccc(Cl)cc2)cc1
  VDR inh: 6.5%
> Cc1oc(-c2cccs2)nc1CN1CC[C@@](O)(c2ccccc2)[C@H]2CCCC[C@@H]21
  VDR inh: -7.9%
> COc1ccc(Cl)cc1C(=O)C1CCCN(Cc2cnc(N3CCOCC3)s2)C1 (stereo unspecified)
  VDR inh: ?

> CC1CC(Nc2ccccc2)=CC(=O)O1 (stereo unspecified)
  VDR inh: -5.3%
> O=C(NCC(O)c1ccccc1)c1ccccc1 (stereo unspecified)
  VDR inh: -8.6%
> O=C(CSc1nc2nccnc2c(=O)n1Cc1cccs1)Nc1ccccc1
  VDR inh: -16.8%
> c1ccc(-c2nc3c(ccc4ccccc43)[nH]2)nc1
  VDR inh: -10.2%
> CSCCC(NC(=O)COc1ccccc1)C(=O)NCCOc1ccc(C)cc1 (stereo unspecified)
  VDR inh: -1.7%
> O=C(CCCc1ccccc1)NCc1ccc2c(c1)OCO2
  VDR inh: 16.8%
> CC(=O)Nc1cccc(OCC(=O)NCCC2=CCCCC2)c1
  VDR inh: 19.8%
> Cn1cc(Cl)cc(C(=O)Nc2ccccc2)c1=O
  VDR inh: -15.4%
> Cc1ccc(S(=O)(=O)N2c3ccccc3OCC2c2ccccc2)cc1 (stereo unspecified)
  VDR inh: -8.8%
> COC(=O)c1ccc(C(=O)OC)c(NC(=S)N2CCN(C)CC2)c1
  VDR inh: 7.2%

> O=C(Nc1nc2ccc([N+](=O)[O-])cc2s1)c1ccncc1
  VDR inh: 3.2%
> N#Cc1c(N)n[nH]c1-c1cc2c([nH]1)CCCC2
  VDR inh: -6.5%
> Cc1nc(C)c(NC(=O)OC(C)C)cc1NC(=O)OC(C)C
  VDR inh: -2.2%
> COc1cc(CC(=O)OCC(=O)N2CCCCC2C)cc(OC)c1OC (stereo unspecified)
  VDR inh: -20.8%
> Cc1ccc(NC(=O)N/C=C/c2ccco2)cc1C
  VDR inh: -2.1%
> CCCCNCc1ccc(SC)cc1
  VDR inh: -6.6%
> COc1ccc(CN2C(=O)c3cccnc3C2=O)cc1S(=O)(=O)N1CCOc2ccccc21
  VDR inh: -17.3%
> CCN(CC(=O)NCc1ccccn1)S(=O)(=O)c1ccc(OC)cc1
  VDR inh: 11.2%
> CCN(CC)C(=O)CC(c1ccc(OC)cc1)c1c(OC)cc(OC)c2ccc(=O)oc12 (stereo unspecified)
  VDR inh: -13.2%&2.3%
> O=S(=O)(N/N=C/c1cccc(OC2CSC2)c1)c1ccccc1
  VDR inh: -8.8%

Some of these compounds in order of the VDR inh value, ascending:
> CCCCNCc1ccc(SC)cc1
  VDR inh: -6.6%
> Cc1ccc(NC(=O)N/C=C/c2ccco2)cc1C
  VDR inh: -2.1%
> CCN(CC(=O)NCc1ccccn1)S(=O)(=O)c1ccc(OC)cc1
  VDR inh: 11.2%

Next entries follow.
> COc1cc2c(cc1OC)C(C)N(S(=O)(=O)c1cn(C)cn1)CC2 (stereo unspecified)
  VDR inh: -12.7%
> O=C(CSc1nc2ccccc2c(=O)n1CCCO)Nc1ccc2c(c1)OCCO2
  VDR inh: -18.2%
> COc1cccc2oc3ccc(C#Cc4ccccn4)cc3c(=O)c12
  VDR inh: -28.8%
> O=C(NCc1ccc2c(c1)OCO2)c1nc(Cn2cc([N+](=O)[O-])cn2)no1
  VDR inh: -1.5%
> Cc1c(NC(=S)NC(=O)c2cccc3ccccc23)cccc1C(=O)O
  VDR inh: -3.0%
> O=C(CN(Cc1ccco1)C(=O)CNS(=O)(=O)c1ccccc1)NCc1ccccc1
  VDR inh: 2.5%
> O=C(NCCNc1ccc(Cl)cc1[N+](=O)[O-])c1cccnc1
  VDR inh: 2.1%
> CCc1nn2c(=O)cc(COC(=O)c3ccccc3NC(=O)COc3ccc(F)cc3)nc2s1
  VDR inh: 11.0%
> Cc1ccccc1-c1nc(CS(=O)(=O)CC(=O)NCCCN2CCOCC2)c(C)o1
  VDR inh: -1.4%
> COc1ccccc1-n1c(SCC(=O)NC(C)(C)C)nc(O)cc1=O
  VDR inh: -15.8%

> Cc1ccc(-n2nc3c(=O)n(CCCC(=O)NCc4cccc(Cl)c4)nc(C)c3c2C)cc1
  VDR inh: -5.8%
> CCOC(=O)N1CCN(S(=O)(=O)c2cc(Br)cc3c2N(C(C)=O)C(C)C3)CC1 (stereo unspecified)
  VDR inh: -1.1%
> COc1ccccc1N1CCN(S(=O)(=O)c2cc(C)sc2C)CC1
  VDR inh: 11.5%
> CCOC(=O)c1nnc2cc(-c3ccccc3)nn2c1C
  VDR inh: 14.5%
> COc1cccc(N2CCN(CC(=O)N3CCN(S(=O)(=O)c4ccc(Cl)cc4)CC3)CC2)c1
  VDR inh: -0.2%
> COc1nc(N(c2ccccc2)c2ccccc2)nc(-n2ccnc2)n1
  VDR inh: -9.0%
> CN(CC(=O)NCc1ccccn1)S(=O)(=O)c1ccc(Cl)cc1
  VDR inh: 7.7%
> Clc1ccc(-c2nc3ccccn3c2Nc2ccc3c(c2)OCCO3)s1
  VDR inh: -14.6%
> O=C(COc1ccccc1Cl)OCc1cc(=O)n2nc(C3CCCCC3)sc2n1
  VDR inh: 5.9%
> O=C(NCc1cccnc1)c1cccc2c1C(=O)N(C1CCCCC1)C2
  VDR inh: 12.2%

> Cc1cc2cc(CN(CCCO)S(=O)(=O)c3cccc4nsnc34)c(=O)[nH]c2cc1C
  VDR inh: -7.1%
> CC(C)N1CCC(N2CCN(C/C=C/c3ccc(F)cc3)CC2CCO)CC1 (stereo unspecified)
  VDR inh: -14.8%
> Cc1cc(N2C(=O)C3CC=CCC3C2=O)no1 (stereo unspecified)
  VDR inh: -15.8%
> COc1cccc(C=Nc2ccc(N3CCOCC3)cc2)c1O
  VDR inh: -4.5%
> Cc1ccc2oc(/N=C(\N)NC(=O)C(C)(C)C)nc2c1
  VDR inh: -3.1%
> COc1ccc(CN2C(=O)c3cccnc3C2=O)cc1S(=O)(=O)N1CCCCC1C (stereo unspecified)
  VDR inh: -8.3%
> COc1cccc([C@@H]2Nc3ccc(C(=O)O)cc3[C@@H]3C=CC[C@@H]32)c1OC
  VDR inh: 5.9%
> COC(=O)c1ccc(CNC(=O)COC(=O)c2ccc(N(C)C)cc2)cc1
  VDR inh: -17.1%
> CC(C)(C)OC(=O)N(c1cccc2cccnc12)S(=O)(=O)c1ccccc1Br
  VDR inh: -15.0%
> O=C(C1CCN(c2ncnc3c2nc2n3CCCCC2)CC1)N1CCN(c2cccc(Cl)c2)CC1
  VDR inh: -11.2%&6.1%

> Cc1cccc(N2C(=O)CC(N3CCN(Cc4ccc(Cl)cc4)CC3)C2=O)c1 (stereo unspecified)
  VDR inh: 1.3%
> CC(NC(=O)COC(=O)C12CC3CC(CC(Br)(C3)C1)C2)c1ccccc1 (stereo unspecified)
  VDR inh: -5.5%
> COc1ccc(CC(=O)OCC(=O)NC(=O)Nc2ccccc2F)cc1
  VDR inh: 3.7%
> CC1CCN(S(=O)(=O)c2ccc(S(=O)(=O)N3CCCC3)cc2)CC1
  VDR inh: -7.8%
> CCc1c(C(C)S(=O)(=O)c2ccccc2)[nH]c(=O)n1CC (stereo unspecified)
  VDR inh: -23.9%
> CCOc1ccccc1CNC(=O)CN1C(=O)C2CCCCN2c2ccc(C(=O)N(C)C)cc21 (stereo unspecified)
  VDR inh: 4.5%
> CCC(=O)N1CCc2cc(S(=O)(=O)NCCC(=O)Nc3cccc(SC)c3)ccc21
  VDR inh: 2.7%
> Cc1ccccc1NC(=S)N(CCN(C)C)C(C)c1ccccn1 (stereo unspecified)
  VDR inh: -7.7%
> Cc1ccccc1OCCOC(=O)c1ccc(S(=O)(=O)N2CCCC2)cc1
  VDR inh: 11.2%
> O=P(c1ccc2c(c1)OCCO2)(N1CCOCC1)N1CCOCC1
  VDR inh: 5.4%

> COc1ccc(CC(=S)N2CCOCC2)cc1OC
  VDR inh: -9.8%
> COc1ccc(O)c(-c2cc(-c3ccc(F)cc3)n[nH]2)c1
  VDR inh: 18.9%
> CCN(CC)S(=O)(=O)c1cccc(C(=O)N[C@H](C(=O)NNC(=O)c2ccccc2)C(C)C)c1
  VDR inh: 10.9%
> Cc1ccccc1NC(=O)c1c(C)oc2ccc(O)c(CN3CCCC(C)C3)c12 (stereo unspecified)
  VDR inh: 6.3%
> CCCCCOC(=O)C1=C(C)NC(=O)NC1c1ccccc1OCC (stereo unspecified)
  VDR inh: -5.3%
> CCc1cc(=O)oc2c3c(cc(OCC(=O)Nc4cccnc4)c12)OC(C)(C)CC3
  VDR inh: 2.7%
> Cc1cccc(C(=O)Nc2sc3c(c2C#N)CCCCC3)c1
  VDR inh: -0.4%
> CCCCn1c(=O)n(-c2ccc(Br)cc2F)c(=O)c2c3c(sc21)CN(C(C)=O)CC3
  VDR inh: -4.2%
> O=C(COC(=O)C1CC2CCCC(C1)C2=O)Nc1nc(-c2ccc(F)c(F)c2)cs1 (stereo unspecified)
  VDR inh: 0.1%
> CCCN(CCC)CCCNC(=O)Cn1cnc2onc(-c3ccc(F)cc3)c2c1=O
  VDR inh: 13.2%

> O=C(NCCCNC(=O)c1ccc(Cl)cc1Cl)c1ccccn1
  VDR inh: -6.9%
> CCCn1c(=O)c2sccc2n2c(CCCC(=O)N3CCN(c4cccc(Cl)c4)CC3)nnc12
  VDR inh: 9.5%
> COc1ccc(-c2cc3nc(-c4ccccc4)cc(N4CCC5(CC4)OCCO5)n3n2)cc1
  VDR inh: 16.5%
> Cc1oc(-c2ccccc2F)nc1CS(=O)(=O)CC(=O)NC1CCCC(C)C1C (stereo unspecified)
  VDR inh: 10.4%
> FC(F)(F)c1ccc(-c2n[nH]c(=S)o2)nc1
  VDR inh: ?
> CC1CCCC/C1=N\NC(=S)Nc1cccnc1 (stereo unspecified)
  VDR inh: 4.9%
> CCOC(=O)C1CCN(C(=O)CSc2ccccc2)CC1
  VDR inh: -14.3%
> CC(C)NC(=O)NC(=O)COC(=O)Cc1ccsc1
  VDR inh: -10.5%
> COC(=O)c1ccc(OCC(O)Cn2cnc3cc(C)c(C)cc32)cc1 (stereo unspecified)
  VDR inh: 4.1%
> CSc1ccc(C(=O)N2CCc3ccc(NC(=O)c4ccccn4)cc3C2)cc1
  VDR inh: -14.6%
> CC(C)n1cc(CN2CCC(n3nccc3NC(=O)CCCc3ccccc3)CC2)cn1
  VDR inh: 13.9%

Structures listed so far with a Cl atom (15):
> CC(C)c1ccc2oc(-c3ccc(Cl)c(NC(=O)Cc4ccccc4)c3)nc2c1
  VDR inh: -20.1%
> CCc1ccc2oc(C(=O)Nc3cccc(Cl)c3C)cc(=O)c2c1
  VDR inh: 16.0%
> CC(=O)Nc1ccc(OC(=O)Cc2ccc(Cl)cc2)cc1
  VDR inh: 6.5%
> COc1ccc(Cl)cc1C(=O)C1CCCN(Cc2cnc(N3CCOCC3)s2)C1 (stereo unspecified)
  VDR inh: ?
> Cn1cc(Cl)cc(C(=O)Nc2ccccc2)c1=O
  VDR inh: -15.4%
> O=C(NCCNc1ccc(Cl)cc1[N+](=O)[O-])c1cccnc1
  VDR inh: 2.1%
> Cc1ccc(-n2nc3c(=O)n(CCCC(=O)NCc4cccc(Cl)c4)nc(C)c3c2C)cc1
  VDR inh: -5.8%
> COc1cccc(N2CCN(CC(=O)N3CCN(S(=O)(=O)c4ccc(Cl)cc4)CC3)CC2)c1
  VDR inh: -0.2%
> CN(CC(=O)NCc1ccccn1)S(=O)(=O)c1ccc(Cl)cc1
  VDR inh: 7.7%
> Clc1ccc(-c2nc3ccccn3c2Nc2ccc3c(c2)OCCO3)s1
  VDR inh: -14.6%
> O=C(COc1ccccc1Cl)OCc1cc(=O)n2nc(C3CCCCC3)sc2n1
  VDR inh: 5.9%
> O=C(C1CCN(c2ncnc3c2nc2n3CCCCC2)CC1)N1CCN(c2cccc(Cl)c2)CC1
  VDR inh: -11.2%&6.1%

> Cc1cccc(N2C(=O)CC(N3CCN(Cc4ccc(Cl)cc4)CC3)C2=O)c1 (stereo unspecified)
  VDR inh: 1.3%
> O=C(NCCCNC(=O)c1ccc(Cl)cc1Cl)c1ccccn1
  VDR inh: -6.9%
> CCCn1c(=O)c2sccc2n2c(CCCC(=O)N3CCN(c4cccc(Cl)c4)CC3)nnc12
  VDR inh: 9.5%

Source: PubChem

Not all compounds are listed (hit frequency here may not be typical).
